Cruzain Triton: blocks cruzain activity in presence of Triton detergent; P25779; AID 1478; purified cruzain, Z-FR-AMC fluorescence, 0.01% Triton; actives 0.43% (n = 200,000); Potency, µM, inactives show max response, negative = inhibition, usual class: inhibitors;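 note: plate controls were neutral wells for no effect and buffer without enzyme for full effect; nearly all actives have a fitted effect of over 40% in size; top concentration of the series not given in the record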
Target sequence (P25779 123-467 limits assumed): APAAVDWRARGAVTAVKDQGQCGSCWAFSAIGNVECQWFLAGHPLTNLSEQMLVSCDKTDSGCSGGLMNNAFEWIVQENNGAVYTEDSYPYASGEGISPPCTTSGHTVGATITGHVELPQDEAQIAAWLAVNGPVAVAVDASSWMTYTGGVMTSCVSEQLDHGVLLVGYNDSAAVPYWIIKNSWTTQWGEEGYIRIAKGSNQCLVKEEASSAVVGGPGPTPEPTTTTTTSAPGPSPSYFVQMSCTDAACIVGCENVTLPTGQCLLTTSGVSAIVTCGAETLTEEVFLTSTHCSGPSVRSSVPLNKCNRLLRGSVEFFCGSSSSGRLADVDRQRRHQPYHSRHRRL
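Z-FR-AMC hydrolysis (2 uM substrate) by cruzain (1.5 nM) monitored kinetically at ex 360/em 450 nm after 15 min room-temperature compound exposure; 0.01% Triton X-100, pH 5.5, 5 mM DTT.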
Cruzain noTriton: blocks cruzain activity in detergent-free assay; purified cruzain, Z-FR-AMC fluorescence, no detergent; Potency, µM, inactives show max response, negative = inhibition, most hits filed as inhibitors; actives 2.3% (n = 200,000); AID 1476;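 note: plate controls were enzyme without inhibitor for no effect and buffer without enzyme for full effect; nearly all actives have a fitted effect of over 40% in size; top concentration of the series not given in the record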
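Purified cruzain at 1.5 nM, pre-incubated 15 min with compound at room temperature in 100 mM sodium acetate pH 5.5, 5 mM DTT, 0.00005% Triton X-100. Reaction started with 2 uM Z-FR-AMC; AMC fluorescence increase over 60 s gives rate.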
NS1 inh: inhibitors of influenza NS1 protein function; S. cerevisiae slowed by influenza A NS1, growth recovery by OD600; actives 0.4% (n = 270,000); Potency, µM (series often up to 46.1 µM), for the others: at the top dose activity, positive = more growth; active means well fitted rising curve with a large enough effect; inconclusive means small, poorly fitted or top-dose-only effect; inactive means no such curve, though single readings can be large or run the other way; note: nearly all actives have a fitted effect of over 50% in size
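OD600 was taken as the measure of yeast growth restored by compound in an NS1-expressing S. cerevisiae strain. Cells had been washed out of glucose medium and diluted 1:100 into galactose -URA medium, pH 6.0.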
An asterisk follows results filed as active; u = inconclusive; x = not tested or not shown; & = joins results of further samples. Unless noted, calls come from the whole dose curve; as a rule, active = well fitted curve in the direction sought with a large enough effect; inconclusive = small, poorly fitted or top-dose-only effect, or another doubt; inactive = no such curve, though single readings can be large; an effect the other way counts as inactive or inconclusive. Potency is the fitted concentration of half-maximal effect. An excerpt. The share of hits here may be higher or lower than overall.

no.	SMILES	Cruzain Triton	Cruzain noTriton	NS1 inh
1	CCc1c(C)nc(N)n2c(SCC(=O)N3CCN(c4ccccc4)CC3)nnc12	x	x	0%
2	COc1cccc(C2/C(=C(/O)c3ccncc3)C(=O)C(=O)N2CCCN2CCOCC2)c1OC (stereo not given)	x	x	-4%
3	Cn1c(=O)c2c(nc(NCCCN3CCOCC3)n2Cc2ccc(Cl)c(Cl)c2)n(C)c1=O	x	x	-1%
4	Cc1cc(C)nc(N2CCN(c3nc(C)nc4c3oc3ccccc34)CC2)n1	x	x	8%
5	CCc1nnc2c3cnn(-c4ccc(C)c(C)c4)c3ncn12	x	x	-5%
6	COC(=O)c1cc(OC)c(OC)cc1NC(=O)c1oc2ccccc2c1C	x	x	-1%
7	Cc1cccc(N2CCN(C(=O)c3cc4c(C)nc5ccccc5c4o3)CC2)c1C	x	x	-8%
8	Cc1cc(C)cc(N(CC(=O)O)S(=O)(=O)c2cccnc2)c1	x	x	-9%
9	CCOc1nc(-c2ccc(OC)cc2)ccc1-c1noc(-c2cccnc2)n1	x	x	-1%
10	c1ccc(-c2nc3c4ccccc4nc(N4CCN(c5ccccn5)CC4)n3n2)cc1	x	x	9%
11	COc1ccc2oc(=O)c(C(=O)N3CCN(C45CC6CC(CC(C6)C4)C5)CC3)cc2c1	x	x	-5%
12	O=C(CSc1nc(N2CCCCC2)nc(N2CCCCC2)n1)NC1CCCCC1	x	x	-22%
13	CC1CCN(C(=O)CSc2ccc3nnc(-c4ccc(F)cc4)n3n2)CC1	x	x	2%
14	COc1ccc(OC)c(C2/C(=C(\O)c3c(C)nc4ccccn34)C(=O)C(=O)N2CCCN(C)C)c1 (stereo not given)	x	x	6%
15	CCOC(=O)c1ccc(CNC(=O)c2cc3cccc(OC)c3oc2=O)o1	x	x	11%
16	CCOC(=O)N1CCN(c2ncnc3c2oc2nc(CC(C)C)c4c(c23)CCC4)CC1	x	x	-40%
17	O=C(NC1CCCc2ccccc21)C1CCN(c2c(N3CCCC3)c(=O)c2=O)CC1 (stereo not given)	x	x	5%
18	COc1ccc(-n2c(SCC(=O)N3CCCC3)nc3c([nH]c4ccccc43)c2=O)cc1	x	x	u
19	CN(C)CCCN1C(=O)C(=O)/C(=C(/O)c2ccc3c(c2)OCO3)C1c1ccccn1 (stereo not given)	x	x	10%
20	COc1ccc(-c2nn(C)c(=O)c3ccccc23)cc1CNC(=O)CN1CCOCC1	x	x	-34%
21	O=C(O)c1nccnc1C(=O)Nc1ccc(Br)cn1	x	x	15%
22	COc1cccc(/C=N/n2c(C)c3c(C)nnc(C)c3c2C)c1O	x	x	7%
23	CCOCCCn1c(=N)c(C(=O)Nc2cc(C)on2)cc2c(=O)n3ccccc3nc21	x	x	-2%
24	c1ccc(-c2nnc(-c3cccc(-c4nnc(-c5ccccc5)o4)c3)o2)cc1	x	x	u

By substructure: the entries above with a COOH group (two)
no.	SMILES	Cruzain Triton	Cruzain noTriton	NS1 inh
8	Cc1cc(C)cc(N(CC(=O)O)S(=O)(=O)c2cccnc2)c1	x	x	-9%
21	O=C(O)c1nccnc1C(=O)Nc1ccc(Br)cn1	x	x	15%

6 compounds drawn at random from the list so far, as already listed:
no.	SMILES	Cruzain Triton	Cruzain noTriton	NS1 inh
22	COc1cccc(/C=N/n2c(C)c3c(C)nnc(C)c3c2C)c1O	x	x	7%
17	O=C(NC1CCCc2ccccc21)C1CCN(c2c(N3CCCC3)c(=O)c2=O)CC1 (stereo not given)	x	x	5%
21	O=C(O)c1nccnc1C(=O)Nc1ccc(Br)cn1	x	x	15%
23	CCOCCCn1c(=N)c(C(=O)Nc2cc(C)on2)cc2c(=O)n3ccccc3nc21	x	x	-2%
13	CC1CCN(C(=O)CSc2ccc3nnc(-c4ccc(F)cc4)n3n2)CC1	x	x	2%
16	CCOC(=O)N1CCN(c2ncnc3c2oc2nc(CC(C)C)c4c(c23)CCC4)CC1	x	x	-40%

Later entries:
no.	SMILES	Cruzain Triton	Cruzain noTriton	NS1 inh
25	CCCn1c(=O)c(C(=O)Nc2ccncc2)c(O)c2ccccc21	x	x	-107%
26	COc1ccccc1C(=O)Nc1cc(-c2nn3c(C)nnc3s2)ccc1C	x	x	-8%
27	CCN1CCN(C(=O)C2CCN(Cc3nc(-c4ccc(Cl)cc4)oc3C)CC2)CC1	x	x	9%
28	Cc1nn2c(=O)nc3sc4c(c3c2[nH]c1=O)CCCC4	x	x	-19%
29	COCCn1cnc2c(c1=O)c1nc3ccccc3nc1n2/N=C/c1cccc(OC)c1OC	x	x	-35%
30	Cc1cccn2c(=O)c3cc(C(=O)NCc4ccccn4)n(C)c3nc12	x	x	-4%
31	Cc1cccc(N2CCN(C(=O)COc3cc(=O)n(C)c4ccccc34)CC2C)c1 (stereo not given)	x	x	-5%
32	CCOc1cc2[nH]c(=O)n(CCCCC(=O)NC3CCCCC3)c(=O)c2cc1OCC	x	x	u
33	COc1ccc(-c2cc3nc(C)c(CCC(=O)N4CCCCC4)c(C)n3n2)c(OC)c1	x	x	16%
34	CCC(Sc1nc2cc(OC)c(OC)cc2c2nc(C)nn12)C(=O)NCc1ccco1 (stereo not given)	x	x	18%
35	CC1CCN(CCCNC(=O)Cc2c(C(=O)O)n(C)c3ccccc23)CC1	x	x	-1%
36	Cc1ccc(S(=O)(=O)c2cc3c(=O)n4ccccc4nc3n(CC3CCCO3)c2=N)cc1 (stereo not given)	x	x	7%
37	CCC(=O)N1CCc2cc(Br)cc(S(=O)(=O)NCCN3CCOCC3)c21	x	x	2%
38	CC1=CC2=NC(=O)CC(C)(C(=O)N(CC(=O)NC(C)C)C3CCCC3)N2C=C1 (stereo not given)	x	x	-4%
39	CCCCN(CC)S(=O)(=O)c1cccc2cccnc12	x	x	u
40	O=C(O)C1CCC(CNCc2cccnc2)CC1 (stereo not given)	x	x	1%
41	CCOc1cc2[nH]c(=O)n(CC3CCC(C(=O)NC(C)CC)CC3)c(=O)c2cc1OCC (stereo not given)	x	x	16%
42	O=C1C(=O)N(CCCn2ccnc2)C(c2cccnc2)/C1=C(/O)c1ccc(Cl)cc1 (stereo not given)	x	x	-2%
43	CSc1nc(-c2ccccc2)nc2[nH]ccc(=O)c12	x	x	0%
44	CSc1ccc(CN2CCC(O)CC2)cc1	x	x	8%
45	CCOC(=O)c1sc(N2C(=O)C(O)=C(C(=O)c3ccco3)C2c2ccccc2)nc1C (stereo not given)	x	x	-37%
46	COc1ccc(NC(=O)c2cnc3ccccn3c2=O)cc1OC	x	x	-11%
47	CC(=O)n1c2ccccc2c2c(C#N)c(N3CCCCC3)sc21	x	x	0%
48	CC1N=C2c3ccccc3N=C(SCc3cc(=O)n4ccccc4n3)N2C1=O (stereo not given)	x	x	11%
49	O=c1[nH]c(N2CCc3ccccc3C2)nc2c1CCCC2	x	x	-1%
50	Cc1c2c(n3c(nc4ccccc43)c1C#N)N(Cc1ccccn1)CC2	x	x	15%
51	CCc1nc2ccccc2c(=O)n1CCCCn1c(CC)nc2ccccc2c1=O	x	x	-2%
52	CCc1ccc2nc(NC3=NCN(CCCN4CCOCC4)CN3)nc(C)c2c1	x	x	-1%
53	O=C(CCn1c(=S)[nH]c2cc3c(cc2c1=O)OCO3)N1CCN(c2ccccn2)CC1	x	x	-33%
54	Cn1c(C(=O)N2CCN(c3ccccn3)CC2)cc2c(=O)n(C)c3ccccc3c21	x	x	2%
55	Cn1c(=O)c2c(-c3ccccc3)n3c4ccccc4ncc3c2n(C)c1=O	x	x	-12%
56	Clc1ccc(-c2nn3c(Cn4cnc5ccccc54)nnc3s2)c(Cl)c1	x	x	-48%
57	CCOc1ccc2nc(NC3=NCN(CC4CCCO4)CN3)nc(C)c2c1 (stereo not given)	x	x	2%
58	CCCc1nc2c3cnn(-c4cccc(Cl)c4)c3ncn2n1	x	x	13%
59	Cc1nc2c(C(=O)N3CCCC3)c[nH]n2c(=O)c1Cc1ccc(F)cc1Cl	x	x	-3%
60	COc1cc(N2C(=O)NC3CC2(C)Oc2ccc(Br)cc23)cc(OC)c1OC (stereo not given)	x	x	-6%
61	CN(C)CCNC(CC(=O)Nc1ccc(Cl)c(Cl)c1)C(=O)O (stereo not given)	x	x	21%
62	Cc1ccc(C)c(/C(O)=C2\C(=O)C(=O)N(CCCN(C)C)C2c2cccnc2)c1 (stereo not given)	x	x	-9%
63	CC(=O)c1ccc(N2CCN(C(=O)c3cc4c(=O)n(C)c5ccccc5c4n3C)CC2)cc1	x	x	-1%
64	CCc1cc2c(=O)c(-c3nc4ccccc4[nH]3)coc2c(CN2CCCC(C)C2)c1O (stereo not given)	x	x	9%
65	CCn1c2ccccc2c2nnc(SCC(=O)NC(C(=O)OC)C(C)C)nc21 (stereo not given)	x	x	-13%
66	O=C1c2oc3ccccc3c(=O)c2C(c2ccc(Cl)cc2)N1c1ncccn1 (stereo not given)	x	x	6%
67	CCOC(=O)c1cnn(-c2ncnc3c2cnn3Cc2ccccc2)c1N	x	x	6%
68	CN1CCN(Cc2nc3c(c(=O)n(C)c(=O)n3C)n2CCc2ccccc2)CC1	x	x	-39%
69	Cc1nc2sccn2c1-c1nc(C2CC2)c(C(=O)c2ccc3c(c2)NC(=O)CO3)s1	x	x	-2%
70	Cc1cccn2c(=O)c3cc(C(=O)N4CCc5ccccc5C4)n(C)c3nc12	x	x	-14%
71	Cc1nnc2sc(-c3cc4ccccc4o3)nn12	x	x	8%
72	CO[C@H]1OC[C@@]2(C)[C@@H]3C4=C(CN2C(=O)OC(C)(C)C)[C@H](C)[C@H](CO)[C@H](CO)[C@H]4CC[C@H]13	-1.5%	u	x

Part of the list above with just Cruzain noTriton and NS1 inh.
| cpd | Molecule | Cruzain noTriton | NS1 inh |
| --- | --- | --- | --- |
| 63 | CC(=O)c1ccc(N2CCN(C(=O)c3cc4c(=O)n(C)c5ccccc5c4n3C)CC2)cc1 | x | -1% |
| 64 | CCc1cc2c(=O)c(-c3nc4ccccc4[nH]3)coc2c(CN2CCCC(C)C2)c1O (stereo not given) | x | 9% |
| 65 | CCn1c2ccccc2c2nnc(SCC(=O)NC(C(=O)OC)C(C)C)nc21 (stereo not given) | x | -13% |

Remaining list, next part:
no.	SMILES	Cruzain Triton	Cruzain noTriton	NS1 inh
73	Clc1ccc(CC[C@H](Cn2ccnc2)Sc2c(Cl)cccc2Cl)cc1	-0.8%	0%	x
74	Cc1cc(C)cc(OP(=O)(Oc2cc(C)cc(C)c2)Oc2cc(C)cc(C)c2)c1	6.2%	0%	x
75	O=C1C=CC(=O)C(Cl)=C1	-1.2%	-8%	x
76	CCc1c2c(nc3cccc(C(C)C)c13)-c1cccc(=O)n1C2	-27%	-4%	x
77	CCC#CCOCC(=S)Nc1ccccc1	-1.4%	4%	x
78	CCCC(Cl)CCCC(Cl)CCC(Cl)CCC(Cl)CCC(Cl)CCCC(Cl)CCC (stereo not given)	1.9%	-6%	x
79	CCOC(C)(C)C	2.2%	-8%	x
80	O=C(Cl)/C=C/C(=O)Cl	6.1%	-8%	x
81	CCCCC/C=C\C/C=C\C/C=C\C/C=C\CCCC(=O)OC(CO)CO	-0.2%&3.1%	u	x
82	CCCC[C@@H]1C[C@H]1C(NC(=O)c1ccco1)c1ccccc1C(F)(F)F (stereo not given in full)	-14%	8%	x
83	NC(=O)[C@@H]1CCCN1	1.2%	0%	x
84	COC(=O)[C@@H]1C[C@H]1[C@@H](NC(=O)c1cccnc1)c1ccccc1	7.6%	-3%	x
85	CCCCC/C=C\C/C=C\CCCCCCCCCC(N)=O	2.6%	-10%	x
86	COc1ccc2c(c1)C(=O)[C@H](OC(=O)NCc1ccco1)[C@@H](c1ccc(OC)c(Br)c1)O2	-1.5%	-13%	x
87	Nc1ncnc2c1ncn2[C@@H]1O[C@H](COP(=O)(O)O)[C@@H](O)[C@@H]1O	-1.4%	2%	x
88	CC(C)N(C)C	5.1%	-9%	x
89	Cc1ccc(C2CC(=O)Oc3ccc(C(C)(C)C)cc32)cc1 (stereo not given)	0.8%	2%	x
90	CC(C)C[C@@H](CC(=O)N[C@@H](CCC(=O)O)CC(=O)O)NC(=O)[C@@H]1CCCC[C@H]1NC(=O)C[C@@H](NC(=O)C[C@H](Cc1c[nH]c2ccccc12)NC(=O)[C@@H]1CNCC[C@H]1N)C(C)C	-0.4%	-2%	x
91	OB(O)O	-0.1%	1%	x

Screening data deposited in PubChem BioAssay by National Center for Advancing Translational Sciences (NCATS).
